High-throughput results from PubChem.
MLL AF4-AF9 inh: blocks AF4 peptide binding to human AF9 | inhibition, % at 10 µM | actives 0.47% (n = 350,000) | AID 651704 | AlphaScreen, biotin-AF4 peptide binding to FLAG-AF9;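 active = every replicate reaching a set inhibition limit, whatever the replicate mean, cut at about 25% in these data; inconclusive = mean inhibition reaches that limit but some replicates miss it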;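 also: 0% = plate neutral control median and 100% = total signal loss; the record names both 10 and 1 µM as test concentration; the first replicate is given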
Target sequence (P42568 whole entry, looked up): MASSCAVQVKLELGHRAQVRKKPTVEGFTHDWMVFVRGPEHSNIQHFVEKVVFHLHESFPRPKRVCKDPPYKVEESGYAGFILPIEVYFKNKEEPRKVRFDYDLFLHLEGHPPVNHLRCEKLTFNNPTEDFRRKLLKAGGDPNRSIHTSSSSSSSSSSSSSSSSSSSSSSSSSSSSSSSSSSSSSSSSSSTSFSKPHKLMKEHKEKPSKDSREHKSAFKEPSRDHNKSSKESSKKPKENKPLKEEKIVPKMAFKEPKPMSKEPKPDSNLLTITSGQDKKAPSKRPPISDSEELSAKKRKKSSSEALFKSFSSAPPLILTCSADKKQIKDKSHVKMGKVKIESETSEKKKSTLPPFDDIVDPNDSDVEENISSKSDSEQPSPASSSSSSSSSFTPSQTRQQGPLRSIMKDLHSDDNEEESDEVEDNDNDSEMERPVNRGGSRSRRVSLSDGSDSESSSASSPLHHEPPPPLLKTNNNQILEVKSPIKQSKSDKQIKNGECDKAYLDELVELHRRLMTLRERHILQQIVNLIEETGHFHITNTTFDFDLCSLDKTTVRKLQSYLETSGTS
rRNA inh HTS: inhibits bacterial ribosomal RNA function over humanized ribosomes | GFP signal change (wild-type ribosome), % (no concentration beside the values) | actives 1.6% (n = 350,000) | E. coli WT GFP vs humanized-ribosome RFP mutants, fluorescence, 24 h; active compounds read low; DMSO median 0, no signal -100 | AID 720706;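 active = significant combined selectivity score with lowered wild-type GFP, culture density cut under 30%, mutant RFP and density less affected; inactive = any of these conditions unmet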; also: one replicate is shown; some compounds called inactive have numbers as strong as hits
rRNA inh HTS OD600: also measured in rRNA inh HTS; calls as there; OD600 change, %; measured here: OD600 growth;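 optical density of the mix in the first replicate; 0 = DMSO median and -100 = no signal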
rRNA inh HTS RFP: second read-out of rRNA inh HTS, no call of its own (marks repeat the call); RFP signal change, %; measured here: RFP humanized mutant strains;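 first replicate; 0 = DMSO median and -100 = no signal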
Numbers without * were called inactive; ? = inconclusive; & = joins results of further samples.

SMILES | MLL AF4-AF9 inh | rRNA inh HTS | rRNA inh HTS OD600 | rRNA inh HTS RFP
C[C@H]1CN([C@@H](C)CO)C(=O)Cc2cc(NC(=O)C3CCCCC3)ccc2O[C@H]1CN(C)CC1CC1 | -3.5 | 5.5 | 9.9 | -0.8
CN1c2ccc(Br)cc2[C@H]2[C@H](CCN2C(=O)c2ccc(F)cc2)[C@H]1CO | 0.5 | -11.6 | -10.8 | 4.6
C[C@H](NC(=O)C[C@H]1CC[C@H](NC(=O)Nc2ccc3c(c2)OCO3)[C@H](CO)O1)c1ccccc1 | -0.7 | 1.0 | 4.8 | -1.1
CN(C)CCCNc1nc2cc(-c3cnn(C)c3)sc2c(=O)n1C | ? | 5.5 | 17.5 | -4.2
C[C@H](CO)N1C[C@H](C)[C@H](CN(C)Cc2ccccn2)Oc2cc(C3=CCCC3)ccc2S1(=O)=O | -0.5 | -4.9 | -21.2 | 2.5
C[C@@H]1CN([C@H](C)CO)C(=O)c2cc(-c3cccc(F)c3)cnc2O[C@H]1CN(C)Cc1ccccc1 | -2.3 | -0.5 | -3.0 | -2.6
CO[C@H]1CN(C)C(=O)c2cc(NC(C)=O)ccc2OC[C@@H](C)N(C(=O)C2CCC2)C[C@@H]1C | 1.4 | 1.4 | 5.8 | -2.0
C[C@H]1CCCCO[C@H](CN(C)C(=O)Cc2ccccc2)[C@@H](C)CN([C@@H](C)CO)C(=O)c2cc(NC(=O)Nc3ccccc3)ccc2O1 | 0.9 | -2.6 | 3.6 | 0.8
CC[C@]12c3[nH]c4ccc(OC)cc4c3CCN1C(=O)C(CC(=O)NCCCn1ccnc1)C[C@@H]2C(=O)N1CCN(C(=O)c2ccco2)CC1 (some centres not stated) | 1.5 | 8.3 | 23.4 | -1.9
C[C@@H]1CN([C@H](C)CO)C(=O)c2cccc(NC(=O)C3CC3)c2O[C@@H]1CN(C)CC1CC1 | -2.9 | 5.8 | 5.2 | -1.4
Cn1cnc(S(=O)(=O)N2C[C@@H](O)COC[C@@H]3O[C@@H](CC(=O)N4CCN(c5ccccc5)CC4)CC[C@H]32)c1 | -1.5 | 1.5 | -0.8 | 1.3
CC=Cc1ccc2n(c1=O)C[C@H]1[C@H](CO)[C@@H](C(=O)NC3CCCCC3)N(C(=O)C3CC3)[C@@H]21 (mixture of isomers) | -0.4 | -1.1 | -11.8 | -0.1
COc1ccc(S(=O)(=O)Nc2ccc3c(c2)[C@H]2C[C@H](CC(=O)N(C)C)O[C@H](CO)[C@H]2O3)cc1 | -4.0 | -1.1 | 1.4 | 0.4
CC(C)C(=O)Nc1ccc2c(c1)C(=O)N(C)[C@H]1CC[C@H](CC(=O)Nc3ccccc3F)O[C@@H]1CO2 | 0.1 | -1.2 | 0.8 | -3.8
O=C1CN(S(=O)(=O)c2cccc(F)c2)C[C@H]2[C@@H](c3ccc(-c4ccccc4)cc3)[C@H](CO)N12 | -0.9 | -0.3 | -35.1 | 13.8
Cc1cc(C)cc(CC(=O)N2CCC2(C)C(=O)NS(=O)(=O)c2ccc(Cl)s2)c1 (configuration not stated) | -2.4 | 0.5 | 15.4 | -1.4
C[C@@H]1CN([C@H](C)CO)C(=O)CCCn2nncc2CO[C@H]1CN(C)Cc1cccnc1 | -0.2&0.2&-1.4 | 1.5&1.3 | 13.5&2.0 | 0.8&-2.1
C[C@H](CO)N1C[C@H](C)[C@H](CN(C)Cc2ccccc2)Oc2c(NS(=O)(=O)c3cn(C)cn3)cccc2C1=O | -2.0 | 6.4 | 8.1 | 2.8
COc1cccc(C#Cc2ccc3c(c2)O[C@H](CN(C)C(=O)c2ccccn2)[C@H](C)CN([C@H](C)CO)S3(=O)=O)c1 | 2.8 | -1.0 | -7.9 | 9.7
CN(C)C(=O)c1ccc(-c2ccc(C3[C@@H]4CN(C(=O)C5CCCCC5)C[C@H]3N4)cc2)cc1 (some centres not stated) | -11.6 | 4.4 | 13.2 | 0.1
COc1ccc(CN2C[C@H](O)COC[C@H]3O[C@H](CC(=O)NCc4ccncn4)CC[C@@H]32)cc1 | -2.3 | -0.3 | 1.4 | -1.4
COc1ccccc1-c1cnc2c(c1)C(=O)N([C@@H](C)CO)C[C@@H](C)[C@@H](CN(C)Cc1ccccc1)O2 | -0.1 | 0.0 | 2.8 | -0.6
COc1cccc(C#Cc2ccc3c(c2)O[C@H](CN(C)C)[C@@H](C)CN([C@H](C)CO)S3(=O)=O)c1 | 9.0 | -0.1 | -28.6 | 32.2
CC(C)C#Cc1ccc([C@H]2[C@H](CO)N3CCCCN(C(=O)c4ccc5c(c4)OCO5)C[C@@H]23)cc1 | 9.6 | -9.0 | -55.2 | 7.9
CCC(=O)N1[C@H](C(=O)NCc2ccccc2F)[C@@H](CO)[C@@H]2Cn3c(cccc3=O)[C@@H]21 | -0.7 | 2.3 | 7.1 | -1.0
COc1cccc(C#Cc2ccc([C@@H]3[C@H](C#N)N(C(=O)C4CC4)[C@H]3CO)cc2)c1 | -2.0 | 1.3 | 0.8 | -0.4
C[C@H]1CN([C@@H](C)CO)C(=O)Cc2cc(NC(=O)CCCCCC(=O)Nc3ccccc3N)ccc2O[C@H]1CN(C)S(C)(=O)=O | -1.1 | 5.4 | 9.6 | -1.2
COC(=O)C[C@@H]1CC[C@H]2[C@@H](COc3ccc(NC(=O)C4CC4)cc3C(=O)N2C)O1 | -1.6 | -0.8 | 3.6 | 0.0
CCC(=O)N[C@@H]1CC[C@H](CCn2cc(C3CC3)nn2)O[C@@H]1CO | -3.3 | 2.2 | -2.7 | -1.3
O=C(NCC[C@@H]1CC[C@@H](NC(=O)Nc2cc(F)ccc2F)[C@@H](CO)O1)Nc1ccc(Cl)cc1 | 18.2 | -59.9 | -80.1 | -17.2
COc1ccc(NC(=O)N(C)C[C@@H]2Oc3ccc(NS(=O)(=O)c4ccc(OC)cc4)cc3CC(=O)N([C@H](C)CO)C[C@H]2C)cc1 | 0.9 | 3.9 | 4.3 | 0.1
CNC[C@@H]1Oc2ncc(-c3ccc(C)cc3)cc2C(=O)N([C@H](C)CO)C[C@H]1C | 5.5 | 2.6 | 0.8 | -1.0
N#Cc1cccc(-c2ccc3c(c2)[C@H]2[C@H](CCN2Cc2ccc4c(c2)OCO4)[C@@H](CO)N3)c1 | 1.1 | 14.2 | 14.4 | 5.6
COCC(=O)Nc1ccc2c(c1)C(=O)N(C)C[C@@H](OC)[C@@H](C)CN(Cc1cncnc1)[C@@H](C)CO2 | -1.6 | 3.7 | 1.4 | 0.5
COc1ccc(S(=O)(=O)N(C)C[C@H]2Oc3ccc(NC(=O)NC(C)C)cc3CC(=O)N([C@@H](C)CO)C[C@H]2C)cc1 | -1.8 | 3.3 | 5.2 | -0.8
CC(C)CC#Cc1ccc2c(c1)O[C@H](CN(C)Cc1ccccc1F)[C@H](C)CN([C@H](C)CO)S2(=O)=O | 0.1 | -1.5 | -2.8 | 2.4
CC(=O)Nc1ccc(-c2ccnc3c2CC(C(=O)Nc2cccc(OC(F)(F)F)c2)O3)cc1 (configuration not stated) | -5.0 | -18.3 | -62.0 | 12.1
N#C[C@H]1N[C@@H](CO)[C@H]1c1ccc(C#CC2CCCC2)cc1 | -2.9 | 1.4 | 4.4 | 0.7
O=C(CC(F)(F)F)N1C[C@H]2[C@@H](c3ccccc31)[C@H](CO)N2C(=O)c1cccnc1 | -2.3 | 1.8 | 6.8 | -0.8
C[C@@H]1CN([C@@H](C)CO)C(=O)c2cc(-c3ccccc3F)cnc2O[C@@H]1CN(C)C(=O)C1CC1 | -1.0 | 3.7 | 10.6 | 2.4
CCS(=O)(=O)N1CC2(C1)[C@@H](c1ccccc1)[C@@H](CO)N2CCC(F)(F)F | -1.7 | 0.5 | 4.7 | 1.1
Cc1noc(C)c1C(=O)N(C)C[C@H]1OCc2ccccc2-c2ccccc2C(=O)N([C@H](C)CO)C[C@H]1C | -3.7 | -0.7 | 1.4 | 2.0
CO[C@@H](CN(C)Cc1cc(F)ccc1F)[C@@H](C)CN(C(=O)Nc1ccc(F)cc1)[C@H](C)CO | 0.7 | -4.5 | -6.4 | -2.8
CCCC#Cc1ccc2c(c1)O[C@H](CN(C)C(=O)NC(C)C)[C@H](C)CN([C@@H](C)CO)S2(=O)=O | -0.7 | -4.7 | -6.5 | 1.9
C/C=C/c1cnc2c(c1)C(=O)N([C@H](C)CO)C[C@H](C)[C@H](CN(C)S(=O)(=O)c1ccc(C)cc1)O2 | -9.9 | -0.2 | -5.9 | -0.3
CNc1cncc(-c2cnn(CC(C)C)c2)n1 | -1.0 | 20.2 | 23.0 | 3.3
CO[C@@H]1CN(C)C(=O)c2ccc(NS(=O)(=O)c3cn(C)cn3)cc2OC[C@@H](C)NC[C@@H]1C | -3.1 | 2.0 | 9.1 | -1.3
C[C@H](CO)N1C[C@H](C)[C@@H](CN(C)Cc2cccc(C(=O)Nc3ccccc3N)c2)OCc2ccccc2-c2c(n(C)c3ccccc23)C1=O | 1.1 | 1.6 | 4.4 | -0.5
COc1ccccc1CNC(=O)C[C@H]1C=C[C@H](NC(=O)CC2CC2)[C@@H](CO)O1 | -2.5 | 3.1 | 1.2 | -2.9
CNC[C@H]1Oc2ccc(NS(C)(=O)=O)cc2CC(=O)N([C@@H](C)CO)C[C@@H]1C | -4.3 | 7.2 | 9.5 | 1.2
C[C@@H]1O[C@H](C2CCCC2)Cc2[nH]c(=S)[nH]c(=O)c21 | -3.4 | 3.8 | 8.0 | 0.9
COc1ccc2c3c(n(C)c2c1)[C@@H](CO)N(Cc1cccnc1)CC31CN(C(=O)NC(C)C)C1 | 1.7 | 2.3 | 8.1 | -4.1
CO[C@H]1CN(C)C(=O)c2cc(NC(=O)C3CCOCC3)ccc2OC[C@H](C)N(Cc2cccnc2)C[C@H]1C | -1.9 | 1.4 | 6.0 | -3.2
COc1ccc(S(=O)(=O)Nc2ccc3c(c2)C(=O)N([C@@H](C)CO)C[C@H](C)[C@H](CN(C)Cc2ccc(Cl)c(Cl)c2)O3)cc1 | -0.3 | -3.1 | -7.8 | -2.0
O=C(c1ccccn1)N1CC[C@@H]2[C@H](CO)Nc3ccc(-c4ccc(F)cc4)cc3[C@@H]21 | 9.7 | -8.5 | -2.9 | 2.4
O=C(CC1CC1)N[C@@H]1CC[C@@H](CCNS(=O)(=O)c2ccc(F)cc2)O[C@@H]1CO | -0.4&0.7 | -3.5&10.0 | -4.5&7.4 | -1.9&1.1
CNC[C@H]1OCCCC[C@H](C)Oc2ccc(NC(=O)NC3CCCCC3)cc2C(=O)N([C@H](C)CO)C[C@H]1C | -4.9 | 8.0 | 8.6 | -1.9
C/C=C/c1ccc2c(c1)O[C@H](CN(C)Cc1ccc(C(=O)O)cc1)[C@H](C)CN([C@@H](C)CO)S2(=O)=O | -0.8 | 1.2 | -4.9 | -3.8
CC(C)NC(=O)N1CC[C@@H]2[C@@H](CO)N(C)c3ccc(-c4ccc(F)cc4)cc3[C@@H]21 | 14.9 | -8.4 | -11.6 | -0.2
C[C@@H]1CN([C@@H](C)CO)C(=O)c2cccc(NC(=O)C3CC3)c2O[C@@H]1CN(C)C(=O)Nc1ccc2c(c1)OCO2 | -8.6 | 2.1 | 3.6 | 0.4

Four entries picked at random from those above, as already listed:
SMILES | MLL AF4-AF9 inh | rRNA inh HTS | rRNA inh HTS OD600 | rRNA inh HTS RFP
CO[C@@H]1CN(C)C(=O)c2ccc(NS(=O)(=O)c3cn(C)cn3)cc2OC[C@@H](C)NC[C@@H]1C | -3.1 | 2.0 | 9.1 | -1.3
C[C@@H]1O[C@H](C2CCCC2)Cc2[nH]c(=S)[nH]c(=O)c21 | -3.4 | 3.8 | 8.0 | 0.9
COc1ccc(S(=O)(=O)Nc2ccc3c(c2)C(=O)N([C@@H](C)CO)C[C@H](C)[C@H](CN(C)Cc2ccc(Cl)c(Cl)c2)O3)cc1 | -0.3 | -3.1 | -7.8 | -2.0
Cc1noc(C)c1C(=O)N(C)C[C@H]1OCc2ccccc2-c2ccccc2C(=O)N([C@H](C)CO)C[C@H]1C | -3.7 | -0.7 | 1.4 | 2.0

(more compounds)
SMILES | MLL AF4-AF9 inh | rRNA inh HTS | rRNA inh HTS OD600 | rRNA inh HTS RFP
C[C@H](CO)N1C[C@H](C)[C@@H](CN(C)C(=O)c2cccnc2)Oc2ncc(-c3ccc(F)cc3)cc2C1=O | -4.9 | -1.4 | -3.2 | -2.6
CCCN1C[C@H](C)[C@@H](OC)CN(C)C(=O)c2cc(NC(=O)c3ccccc3F)ccc2OC[C@@H]1C | 1.0 | -1.3 | -3.6 | 4.8
COc1ccc(CNC(=O)C[C@H]2CC[C@@H](NC(=O)c3cccc(F)c3)[C@@H](CO)O2)cc1 | -0.3 | -0.4 | -2.0 | -0.7
C[C@H](CO)N1C[C@H](C)[C@H](CN(C)Cc2ccc(C(=O)Nc3ccccc3N)cc2)Oc2ccc(NC(=O)C3CC3)cc2C1=O | 0.2 | 0.3 | 1.5 | -1.8
COc1ccccc1S(=O)(=O)N[C@@H]1CC[C@@H](CCn2cc(C3CCCCC3)nn2)O[C@H]1CO | 2.2 | -6.1 | -8.2 | 0.8

Reformatted with two lines to a compound: 2 of the compounds above.
Fields – MLL AF4-AF9 inh	rRNA inh HTS	rRNA inh HTS OD600	rRNA inh HTS RFP
- C[C@H](CO)N1C[C@H](C)[C@H](CN(C)Cc2ccc(C(=O)Nc3ccccc3N)cc2)Oc2ccc(NC(=O)C3CC3)cc2C1=O
→ 0.2	0.3	1.5	-1.8
- COc1ccccc1S(=O)(=O)N[C@@H]1CC[C@@H](CCn2cc(C3CCCCC3)nn2)O[C@H]1CO
→ 2.2	-6.1	-8.2	0.8

This is a subset (hit frequency here may not be typical).
